Screening results as filed in PubChem BioAssay.
RecA splice inh: Mtb RecA intein splicing inhibitors, primary screen, biochemical, fluorescence, HTS. Protein RecA (Mycobacterium tuberculosis (strain ATCC 25618 / H37Rv)), P9WHJ3. cell-free RecA intein splicing. inhibition, %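 (about 9 µM by stock and volumes)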. 290,000 compounds, 0.75% hits; in the data active = inhibition above about 30%; inconclusive = no clear call, values can overlap the other calls;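 also: 0% = vehicle wells and 100% = reference inhibitor control wells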
Target sequence (P9WHJ3 whole entry, looked up, canonical isoform): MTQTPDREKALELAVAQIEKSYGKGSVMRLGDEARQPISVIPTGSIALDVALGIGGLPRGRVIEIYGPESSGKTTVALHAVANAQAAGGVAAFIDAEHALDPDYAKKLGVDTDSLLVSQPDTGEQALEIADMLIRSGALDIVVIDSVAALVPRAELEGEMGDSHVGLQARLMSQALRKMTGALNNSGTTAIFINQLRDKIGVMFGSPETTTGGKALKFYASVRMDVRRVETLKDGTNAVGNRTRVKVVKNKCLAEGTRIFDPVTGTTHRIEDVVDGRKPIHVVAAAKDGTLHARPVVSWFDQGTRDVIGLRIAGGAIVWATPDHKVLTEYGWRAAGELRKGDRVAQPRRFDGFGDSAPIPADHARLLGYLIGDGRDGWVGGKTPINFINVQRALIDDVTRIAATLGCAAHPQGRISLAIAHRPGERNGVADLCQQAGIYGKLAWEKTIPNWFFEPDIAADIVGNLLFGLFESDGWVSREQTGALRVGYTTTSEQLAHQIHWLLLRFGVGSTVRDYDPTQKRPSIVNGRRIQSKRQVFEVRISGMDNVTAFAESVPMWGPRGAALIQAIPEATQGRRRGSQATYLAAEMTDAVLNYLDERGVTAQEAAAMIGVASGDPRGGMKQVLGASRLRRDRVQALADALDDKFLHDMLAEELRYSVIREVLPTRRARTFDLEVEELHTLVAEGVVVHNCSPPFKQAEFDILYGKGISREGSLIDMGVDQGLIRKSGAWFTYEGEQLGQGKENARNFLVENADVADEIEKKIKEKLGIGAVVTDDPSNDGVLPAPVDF
YopH PTP inh: YopH tyrosine phosphatase inhibitors, primary screen, biochemical, fluorescence Ex485/Em525 | 140,000 compounds, 0.16% hits | YopH tyrosine phosphatase [Yersinia enterocolitica] | inhibition, %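 (about 10 µM by stock and volumes)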;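 active = inhibition of 50% or more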;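 also: controls were vehicle for no effect and minimum signal wells for full effect; inactives centre near -20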
Mtb H37Rv: M. tuberculosis H37Rv growth inhibitors, H37Rv strain (AID 1626); M. tuberculosis H37Rv growth inhibition; higher % means a stronger effect; inhibition, % at 10 µM; hits with a dose series show IC50 in µM; 220,000 compounds, 0.95% hits;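 active = confirmed in a dose series; inconclusive = inhibition above 80% but not taken into the dose series; inactive = below 80% or under 30% at every dose of the series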;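 also: bacteria incubated seven days before Alamar blue readout; 0% = bacteria only wells and 100% = bacteria with antibiotic wells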
Arbovirus inh: antivirals against arbovirus infection, primary screen, cell-based, full library, 10K replicate subset | arbovirus infection cell-based antiviral screen | AID 1251, 2008 | inhibition, % at 10 µM | 200,000 compounds, 0.37% hits;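 active = inhibition from about 30%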;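 also: bluetongue infection of BSR cells; cell survival read as ATP light after 72 h; 0% = infected wells without compound and 100% = uninfected wells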
Mtb bLac sens: beta-lactam sensitization of Mtb H37Rv, H37Rv | M. tuberculosis H37Rv growth with meropenem, percent inhibition; hits of this screen are not shown here | inhibition, % at 25 µM | 330,000 compounds, 0.27% hits | AID 434955, 2010;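 active = about 74% or more and at least 40 points above the plate without the antibiotic, then above 30% in a dose series; inconclusive = first-round hits that could not be retested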;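 also: growth measured after seven days incubation then overnight dye step; 0% = bacteria only wells and 100% = bacteria with antibiotic; twin plates without the antibiotic show which effects depend on it; some results filed as inactive read as strong as hits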
Arbovirus inh repeat: also measured in Arbovirus inh; calls as there; inhibition, %; measured here: 10K subset replicate screen; many hits read low in the repeat;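 first of two repeat runs on a subset; 0% = infected and 100% = uninfected wells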
The depositor's hits bear a star; ? = inconclusive; / = no result given. A portion of the library; count on the stated rates, not on these rows.

SMILES	RecA splice inh	YopH PTP inh	Mtb H37Rv	Arbovirus inh	Mtb bLac sens	others
CCOc1cc(C(=S)N2CCOCC2)ccc1OS(=O)(=O)c1ccc(NC(C)=O)cc1	-2.2	-39	-5%	14	-2
Cc1cc(C(=O)O)c(C)n1-c1ccccc1	0.3	-33	0%	5	-8
O=C(CNC1CCCCC1)N1CCc2ccccc2C1	0.3	-20	-12%	5	-13
O=C(CSc1nnc(-c2cccnc2)o1)Nc1cccc(Cl)c1	1.5	/	/	/	3
O=C(Nc1cccc2cccnc12)c1cccc([N+](=O)[O-])c1	1.5	/	/	/	-3
CCN(CC)C(=O)CN(C#N)c1nc(OC)nc(N(C)C)n1	/	-17	-6%	4	-4
O=C(CC(=O)c1ccccc1)Nc1ccccc1C(F)(F)F	2.9	/	/	/	13
CN(C)c1ccc(S(=O)(=O)NCC(=O)OCC(=O)Nc2cc(Cl)cc(Cl)c2)cc1[N+](=O)[O-]	5.4	-32	-2%	-2	-1
O=C(N[C@@H](Cc1c[nH]c2ccccc12)C(=O)O)C1CCN(S(=O)(=O)c2cccs2)CC1	-2.2	/	/	/	-1
O=C(Cc1cccs1)Nc1ccc2c(c1)C(=O)OC2	2.5	-13	-5%	13	-9
Cn1c(=O)c2c(nc(Sc3ncccn3)n2Cc2ccccc2Cl)n(C)c1=O	-4.0	1	-3%	5	10
O=C(NNC(=O)C1CCN(S(=O)(=O)c2cccc(C(F)(F)F)c2)CC1)C1CC1	-2.1	/	-6%	-8	-4
Cc1ccc(CS(=O)(=O)CCC(=O)NCCC2=CCCCC2)cc1	-0.7	/	8%	4	1
CCCCCOc1cccc(C2C(C(=O)c3cccs3)=C(O)C(=O)N2CCN2CCOCC2)c1 (configuration not stated)	2.3	/	/	/	1
COc1ccc(CCNC(=O)CO/N=C/c2cc3c(cc2Br)OCO3)cc1OC	-2.1	/	-7%	19	5
Cc1ccc(-c2cc(=O)c3cc(F)ccc3[nH]2)cc1	-1.4	-25	-14%	-2	2
COc1ccc(C(=O)/C=C/c2ccc(OC)c(Cn3nnc4ccccc43)c2)cc1	11	-18	13%	37*	3
COc1ccc(CCNS(=O)(=O)c2ccc(Br)s2)cc1	4.6	/	/	/	7
CC1CCCC(C)N1CCNC(=O)Cn1nc(-c2ccccc2)ccc1=O (configuration not stated)	-1.9	2	-6%	2	4
COc1cccc(C(CC(=O)NCC2CCCO2)NS(=O)(=O)c2ccc(C)cc2)c1OC (configuration not stated)	/	-46	10%	0	/

Random excerpt: two records from the list, in no set order.
SMILES	RecA splice inh	YopH PTP inh	Mtb H37Rv	Arbovirus inh	Mtb bLac sens	others
COc1ccc(C(=O)/C=C/c2ccc(OC)c(Cn3nnc4ccccc43)c2)cc1	11	-18	13%	37*	3
COc1ccc(CCNS(=O)(=O)c2ccc(Br)s2)cc1	4.6	/	/	/	7

Later entries.
SMILES	RecA splice inh	YopH PTP inh	Mtb H37Rv	Arbovirus inh	Mtb bLac sens	others
Cc1ccc(-c2csc(NC(=O)CSc3nc4ccccc4[nH]3)n2)cc1	-1.2	-27	1%	8	/
CCn1nnnc1-c1ccc(OC)c(S(=O)(=O)N2CCCCC2)c1	-0.7	-29	-3%	-2	4
CCOC(=O)c1c(-c2ccccc2)c(C(C)=O)c(=O)n(C)c1C	0.8	-46	-2%	4	2	Arbovirus inh repeat=-1
CCN(CC)CCOC(=O)c1ccc(Cl)cc1Cl	/	/	-7%	3	0
CC1CCCCC1NC(=O)CN1C(=O)c2cccc(N)c2C1=O (configuration not stated)	-346	/	0%	3	/
NCCOc1ccc(C2CCCCC2)cc1	1.9	/	-3%	6	-2
O=C(O)CCCNS(=O)(=O)/C=C/c1ccccc1	0.8	/	6%	3	-4
CN(CC(=O)Nc1ccccc1C(F)(F)F)C(=O)CCc1nc2ccccc2c(=O)[nH]1	-2.5	/	/	/	-16
O=C(CSCc1cc(=O)n2ccsc2n1)Nc1ccc(F)cc1	-2.9	/	/	/	-2
Cn1ccnc1SCC(=O)c1ccc(OC(F)F)cc1	-3.3	/	/	/	-12
COc1cc2c(cc1OC)C(c1cc3ccc(C)cc3[nH]c1=O)N(C(=O)c1ccco1)CC2 (configuration not stated)	0.7	/	/	/	-8
COc1ccc(NS(=O)(=O)c2ccc3c(c2)oc(=O)n3C)c(OC)c1	2.5	-49	-6%	3	1	Arbovirus inh repeat=-5
CCOC(=O)CCNC(=O)Nc1cc2nc(C)n(Cc3cccc(Cl)c3)c2nc1C	1.2	/	/	/	-1
COc1ccc(N/C=C/C(=O)c2ccc(OC)c(OC)c2)cc1	/	/	47%	/	94
Cc1cc(C(F)(F)F)n(-c2nc(C(=O)NNS(=O)(=O)c3ccccc3)cs2)n1	3.3	-5	4%	0	-3
O=C(O)C1Nc2c(O)cccc2C2C=CCC12 (configuration not stated)	/	-9	-4%	-5	14
Cc1c(C(=O)NCc2ccco2)sc2nc(-c3ccccc3)cn12	4.8	1	13%	-26	-4	Arbovirus inh repeat=-24
CCOC(=O)C(Cc1ccc(OC)c([N+](=O)[O-])c1)NC(=O)CCC(=O)Nc1ccc(OC)cc1 (configuration not stated)	0.7	/	-11%	1	-2
CCc1ccc(OCC(=O)N(C)C2CCS(=O)(=O)C2)cc1 (configuration not stated)	-1.5	-26	-10%	/	1
C=CCN1C(=O)C(C(C)CC)NC1=S (configuration not stated)	-0.8	-19	-3%	24	-13

Grouped by structure, the compounds so far containing a nitro group on carbon (3)
SMILES	RecA splice inh	YopH PTP inh	Mtb H37Rv	Arbovirus inh	Mtb bLac sens	others
O=C(Nc1cccc2cccnc12)c1cccc([N+](=O)[O-])c1	1.5	/	/	/	-3
CN(C)c1ccc(S(=O)(=O)NCC(=O)OCC(=O)Nc2cc(Cl)cc(Cl)c2)cc1[N+](=O)[O-]	5.4	-32	-2%	-2	-1
CCOC(=O)C(Cc1ccc(OC)c([N+](=O)[O-])c1)NC(=O)CCC(=O)Nc1ccc(OC)cc1 (configuration not stated)	0.7	/	-11%	1	-2

(listing goes on)
SMILES	RecA splice inh	YopH PTP inh	Mtb H37Rv	Arbovirus inh	Mtb bLac sens	others
CC(C)[C@H](NC(=O)c1ccco1)C(=O)OCC(=O)c1ccc2c(c1)NC(=O)CO2	-1.3	/	1%	4	-2
CCCCOc1nc2ccccc2c(=O)n1-c1ccccc1	2.4	-18	4%	0	6
Cn1cc(C(=O)N2CCC3(CC2)OCCO3)c2c3ccccc3n(C)c2c1=O	-4.3	0	0%	3	3
CCc1cccc(C)c1NC(=O)c1ccc2c(c1)CCN2S(C)(=O)=O	2.4	/	/	/	4
CCN(CCn1cccn1)C(=O)CCc1nnc(C2(c3ccc(Cl)cc3)CCC2)o1	0.6	/	1%	11	-8
O=C(Nc1nc2ccccc2s1)c1ccc(N2CCCCC2)c([N+](=O)[O-])c1	-0.1	-20	8%	38*	24
Cc1c(CCOC(=O)CC23CC4CC(CC(C)(C4)C2)C3)sc[n+]1CC(=O)c1ccccc1	12	/	-8%	-35	18
O=C(COC(=O)C1=COCCO1)Nc1ccccc1	-1.1	/	37%	1	35
Cc1[nH]c2ccccc2c1C(=O)COC(=O)Cn1c(C(F)(F)F)nc2ccccc21	2.3	-21	3%	5	3
COCCNC(=O)CN(C(=O)CCC(=O)Nc1ccccn1)c1ccc(C)cc1C	-0.7	/	/	/	-4
CCOC(=O)C1CCCN(S(=O)(=O)c2ccc(Br)c(OC)c2)C1 (configuration not stated)	0.6	-3	4%	-7	-10
CCN(Cc1cc2ccc(C)cc2[nH]c1=O)C(=O)c1ccncc1	-1.2	-58	3%	11	/
O=C(COc1ccc2ccccc2c1)N1CCN(CC2CC3C=CC2C3)CC1 (configuration not stated)	2.0	-7	4%	5	-5
COc1ccc(NC(=O)CSc2nc(C3CC3)nc3ccccc23)cc1	2.1	/	/	/	-5
CCCCCCNC1=NCCS1	1.2	/	1%	0	-4
O=C1CCc2cc(NS(=O)(=O)c3ccc(F)cc3)cc3c2N1CC3	-2.8	/	/	/	-7
CCO[C@H]1OC(C(=O)NCc2nc3ccccc3[nH]2)=C[C@@H](c2cn(C(C)=O)c3ccccc23)[C@@H]1CCCO	2.0	/	1%	/	/
CS(=O)(=O)NCCCc1ccccc1	-2.0	-8	1%	10	-16	Arbovirus inh repeat=-3
Cc1ccc(S(=O)(=O)N2CCOCC2)cc1NC(=O)Cn1nc(C)c([N+](=O)[O-])c1C	0.7	/	/	/	1
CCOCCCn1c(C)nc2c(c1=O)c1nc3ccccc3nc1n2-c1ccc2c(c1)OCCO2	3.1	/	-4%	/	5
Cc1ccc(S(=O)(=O)NC(CN2CCOCC2)=NCCNS(=O)(=O)c2ccccc2)cc1	4.6	-36	-10%	6	4
CC(C)CN1C=C2C(=O)C(C)(OC(=O)C3CCCC3)C(=O)C=C2C=C1c1ccsc1 (configuration not stated)	10	/	-11%	/	-1
COCCN1C=C2C(=O)C(C)(OC(=O)CCC(=O)OC)C(=O)C(Br)=C2C=C1c1ccc(OC)cc1 (configuration not stated)	-3.3	/	-5%	/	8
COC(=O)c1ccc2c(=O)n(CCCCCC(=O)O)c(=S)[nH]c2c1	-2.3	-34	3%	2	-3
Cc1ccc(C(C)C)c(OCCCN2CCc3ccccc3C2)c1	8.9	/	/	/	11
Cc1ccc(CS(=O)(=O)Cc2ccc(C(=O)NC3CCCC3)o2)cc1	-7.2	/	/	/	0
CC(C)NC(=O)c1ccc(COc2ccc(C(C)(C)C)cc2)o1	9.7	/	/	/	5
COc1ccc(CCN2C(=O)C3C4CC(C5C(C(N)=O)=NOC45)C3C2=O)cc1OC (configuration not stated)	-0.3	-21	2%	7	0
C=C(C)C(=O)Nc1nnc(-c2cccs2)s1	-0.2	-15	0%	5	11
O=C(NC(=S)NCc1ccccc1)c1ccc(Br)o1	2.7	/	/	/	0
Nc1cc(C(=O)OCC(=O)NCc2ccco2)ccc1Cl	2.8	-30	-7%	0	1
COCc1cc(Sc2ccc(Br)cc2)nc(-c2ccccc2)n1	-3.5	-35	21%	6	0
COc1ccc(OCC(=O)N/N=C/c2ccncc2)cc1	-1.6	/	-6%	-3	57
Nc1nc2nc[nH]c2c(=O)[nH]1	-1.8	/	/	/	-10
O=C(O)C1SCCN1S(=O)(=O)c1ccc2ccccc2c1 (configuration not stated)	-4.1	-15	-1%	-1	-1
C#CCOCCOCCOCCNc1nc(OC)nc(N2CCN(C(=O)[C@H](CCCCN)n3cc(C(N)CO)nn3)CC2)n1 (some centres not stated)	-0.5	/	-17%	/	/
CCCOc1ccc(N2CC(C(=O)Nc3ccccc3C(=O)NCc3ccco3)CC2=O)cc1 (configuration not stated)	-1.0	-2	10%	5	7
CC1=C(C(=O)NC2CC(C)(C)Cc3c2cnn3-c2ccc(C)cc2)OCCO1 (configuration not stated)	-2.8	/	/	/	4
Cc1cccc(NC(=S)NC2CCCCCC2)c1C	-1.3	-37	11%	7	23
Cn1c(=O)n(C)c2cc([N+](=O)[O-])c(N3CCN(CCO)CC3)cc21	-2.0	/	2%	0	-2
CCN(CC)S(=O)(=O)c1cc(NS(=O)(=O)c2cccc(Cl)c2)ccc1C	0.2	-54	-6%	20	1
Cc1cccc2cc(COC(=O)c3ccco3)c(=O)[nH]c12	-2.2	-8	0%	2	-5
O=C(O)C1=C[C@@H](C2CCCCC2)C[C@@H](OCc2ccc(CO)cc2)O1	-0.2	/	-6%	4	-9
CN(C)c1ccc(C2CNC(c3ccc(Cl)c([N+](=O)[O-])c3)c3[nH]c4ccccc4c32)cc1 (configuration not stated)	27	/	?	/	85
N#Cc1ccc(NC(=O)c2cccs2)nc1	-2.7	/	/	/	-2
CNC(=O)c1sc(=S)n(-c2ccc(OC)cc2)c1N	-2.9	/	-5%	4	-8
Cc1nc(NC(=O)/C=C/c2ccccc2)sc1C(=O)N1CCCCC1	1.4	/	-1%	-1	1
COc1ccc(Cl)cc1S(=O)(=O)N1CCN(C(=O)c2ccco2)CC1	2.0	-14	-9%	10	2
COc1cc(C(O)c2nc3ccccc3s2)cc(OC)c1OC (configuration not stated)	0.3	/	/	/	3
COc1ccc(Cn2nnnc2C(c2ccccc2Cl)N2CCN(C)CC2)cc1 (configuration not stated)	0.2	-36	-3%	0	/
Cc1ccc(OCC(=O)NNC(=O)CCC(=O)NCc2ccccc2)cc1	-1.1	-27	-5%	1	7
O=C1CSC2N1CCNC21CCCCC1 (configuration not stated)	1.8	-10	-6%	3	-2
C[n+]1ccc(-c2ccncc2)cc1	-1.3	-21	9%	2	9
COc1cc(/C(C)=N/NC(=O)C(O)(c2ccccc2)c2ccccc2)ccc1O	-0.4	/	5%	1	-2
C=CCc1ccc(OCc2ccc(C(=O)Nc3ccc(NC(C)=O)cc3)o2)c(OC)c1	4.6	/	/	/	29
